eIF4H inh: human eIF4H binding inhibitors, primary screen, translation initiation inhibitor project, biochemical, uHTS, fluorescence polarization. inhibition, % at 35 µM. AID 2012, 2009. actives 0.94% (n = 290,000). eIF4H fluorescence polarization binding assay. Eukaryotic translation initiation factor 4H (Homo sapiens), Q15056;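 active = 50% or more with normal probe brightness, or confirmed in later tests; inconclusive = above 50% with abnormal brightness, or retests that disagree; inactive = below 50% or failed in later tests; about a fifth of its hits are not listed in these tables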;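 note: calls also rest on retests at 20 µM and on dose response follow-up; 0% = protein and probe with vehicle and 100% = probe without protein; strong numbers were not always called active; many hits fall short of the cut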
Rce1 inhib: yeast Rce1p protease inhibitors, primary screen, biochemical, fluorescence, cell-free homogeneous. CAAX prenyl protease 2 (Saccharomyces cerevisiae (strain ATCC 204508 / S288c)), Q03530. yeast membranes, quenched prenylated peptide cleavage fluorescence. calls only. actives 0.27% (n = 290,000). AID 2563, 2010;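 active = fall in fluorescence gain of 50% or more versus controls, with final raw signal at or below 3038400; inconclusive = same 50% fall but final raw signal above 3038400; inactive = fall in fluorescence gain under 50%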;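 note: plate controls were neutral control wells for no effect and wells lacking membranes for full effect; tested at 10 µM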
MT1-MMP act inh: blockers of MT1-MMP proenzyme processing, primary screen, HT1080 RFP-PRO-GFP cells, GFP/RFP fluorescence. Matrix metalloproteinase-14 (Homo sapiens), P50281. actives 0.061% (n = 360,000). GFP/RFP ratio fluorescence, overnight; percent of plate control window, DMSO zero. GFP/RFP ratio change, % at 20 µM. AID 651647, 2012;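 active = GFP/RFP ratio change of at least 30% with cell ATP level not reduced by more than half and red fluorescence within 50% of control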; note: strong numbers were not always called active
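Assay system – RFP-PRO-GFP reporter HT1080 cells · Compound dosing – single dose of 20 µM compound, 1% DMSO final · Incubation – overnight compound exposure at 37 °C · Measure – GFP/RFP fluorescence ratio · Benchmarks – DMSO wells and RFP-L50D-GFP cells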
PABP FP inh: PABP poly(A) RNA binding inhibitors, primary screen, biochemical, fluorescence polarization, uHTS; Polyadenylate-binding protein 1 (Homo sapiens), P11940; inhibition, % at 35 µM; actives 1% (n = 290,000);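 active = 50% or more with normal probe brightness, or confirmed in later tests; inconclusive = above 50% with abnormal brightness, or retests that disagree; inactive = below 50% or failed in later tests; about a fifth of its hits are not listed in these tables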;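 note: calls also rest on retests at 20 µM and on dose response follow-up; controls were probe without protein and protein plus probe with vehicle; some compounds called inactive have numbers as strong as hits; many hits fall short of the cut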
Target sequence (P11940 whole entry, looked up): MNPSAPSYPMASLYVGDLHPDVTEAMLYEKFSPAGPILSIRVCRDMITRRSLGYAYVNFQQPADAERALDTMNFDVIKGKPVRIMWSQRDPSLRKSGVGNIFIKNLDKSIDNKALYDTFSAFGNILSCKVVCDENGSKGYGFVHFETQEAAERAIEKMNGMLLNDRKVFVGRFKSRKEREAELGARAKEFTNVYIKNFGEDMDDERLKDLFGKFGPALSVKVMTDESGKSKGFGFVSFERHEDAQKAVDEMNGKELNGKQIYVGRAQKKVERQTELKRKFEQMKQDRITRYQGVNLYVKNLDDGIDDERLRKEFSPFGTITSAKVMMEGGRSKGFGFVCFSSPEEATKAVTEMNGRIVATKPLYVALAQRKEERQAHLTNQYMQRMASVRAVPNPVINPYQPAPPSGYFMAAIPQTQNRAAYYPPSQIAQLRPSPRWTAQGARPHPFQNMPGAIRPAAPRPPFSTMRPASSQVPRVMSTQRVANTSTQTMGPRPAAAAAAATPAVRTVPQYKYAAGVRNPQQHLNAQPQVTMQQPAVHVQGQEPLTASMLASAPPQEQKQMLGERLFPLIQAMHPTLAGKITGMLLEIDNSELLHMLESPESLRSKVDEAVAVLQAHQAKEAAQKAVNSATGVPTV
CSC inhib: cancer stem cell viability inhibitors, primary screen, luminescence. cancer stem cell-like cells viability. inhibition, % at 7.5 µM. actives 1.1% (n = 300,000). AID 2717, 2010;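 active = mean at 75% or more and at least half the replicates too; inconclusive = mean and replicates disagree; tested in HMLE shEcad cells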;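 note: 0% = median of negative and 100% = median of positive control wells; the first replicate is given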
UUG fidelity: modulators of yeast start codon fidelity, primary screen, whole organism, S. cerevisiae, single point, plate reader | S. cerevisiae UUG-firefly luciferase reporter, luminescence/redox ratio | activity score, % at 18.7 µM | actives 0.13% (n = 350,000);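 active = replicate mean at a twofold rise or more, about +100% in these data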;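 note: firefly luciferase made from a UUG start codon reports start codon fidelity; reporter light over untreated wells divided by growth signal over untreated wells; some hits fall short of that in this replicate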
Env fusion inh: inhibitors of HIV-1 Env-driven cell-cell fusion, primary screen, HeLa-JRFL effector, CEM21 target cells, luciferase; inhibition, % at 12.3 µM; actives 1.1% (n = 360,000);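 active = mean replicate inhibition score of at least 50 and every replicate individually at or above 50; inconclusive = only one of the two criteria met; inactive = mean below 50 and not all replicates reaching 50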;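 note: 0% = plate neutral controls and 100% = maraviroc near 300 nM; one replicate is shown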
eIF4H inh retest: recorded beside eIF4H inh, whose call it bears; inhibition, %; compound at 20 µM; confirmation average;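 mean of two retest wells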
PABP FP inh retest: also measured in PABP FP inh; calls as there; inhibition, %; compound at 20 µM; confirmation repeats;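 mean of two retest wells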
MT1-MMP act inh RFP: recorded beside MT1-MMP act inh, whose call it bears; RFP signal change, %; measured here: RFP expression control read;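 0 = vehicle wells; hits needed this value within 50% of zero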
* hit, by the source's call; i = inactive; u = inconclusive; x = no result given; & = joins results of further samples.

SMILES	eIF4H inh	Rce1 inhib	MT1-MMP act inh	MT1-MMP act inh RFP	PABP FP inh	CSC inhib	UUG fidelity	Env fusion inh	others
CCC(C(=O)Nc1ccc2[nH]ncc2c1)c1ccccc1 (configuration not stated)	-5	i	-1	-5	-6	0	-15	9
Oc1ccccc1-c1cc(-c2ccccc2)n[nH]1	x	x	7	2	x	x	-32	u
COc1ccc(N(C)S(=O)(=O)c2cccc(C(=O)NC3CCC(C)CC3)c2)cc1 (configuration not stated)	6	i	-21	-23	6	-5	x	26
Brc1ccccc1C1Nc2cccc3cccc(c23)N1	u	i	4	1	u	-2	-24	19
O=C(Nc1ccc(S(=O)(=O)Nc2cnc3ccccc3n2)cc1)c1cc(F)c(F)cc1Cl	9	i	3	-3	14	1	-8	-1
COc1ccc(OC)c(NC(=O)CSc2nnc(-c3cnccn3)n2C)c1	8	i	-3	2	2	4	-15	5
O=C(Cn1cc[n+](Cc2ccccc2)c1)c1ccc([N+](=O)[O-])cc1	102	i	1	-6	5	-13	x	8	eIF4H inh retest=-10;PABP FP inh retest=7
O=C(/C=C/c1c(F)cccc1Cl)N1CCOCC1	3	i	-3	2	2	10	-3	-6
COCCNC(=O)CC(c1ccccc1)c1ccccc1	0	i	2	2	-4	-2	-11	x
Cn1c(C(=O)OC(C(=O)NC2CCCC2)c2cccnc2)cc2sccc21 (configuration not stated)	-6	i	5	2	4	x	-27	x
O=[N+]([O-])c1ccccc1/C=N\N1CCN(Cc2ccccc2Cl)CC1	2	i	5	1	4	1	-2	12
COc1ccc(NS(=O)(=O)c2cccc(C(=O)N3CCCC3)c2)cc1	x	i	3	2	x	10	x	-17
COc1ccc(S(=O)(=O)Nc2ccccc2C(=O)NC(C)C)cc1OC	-16	i	1	2	7	-14	0	x
COc1ccc(N2CCN(c3ccc(NC(=O)C4CCCCC4)cc3C#N)CC2)cc1	-10	i	6	1	4	-14	-5	x
Cc1sc(=NC(=O)c2ccco2)n(C)c1-c1ccc(F)cc1	-10	i	3	-2	-6	-7	x	x
COc1ccc(S(=O)(=O)N2CCOC2CNC(=O)C(=O)NCCCn2ccnc2)cc1OC (configuration not stated)	-5	i	1	6	7	-7	-9	-15
CCS(=O)(=O)N1CCCC(C(=O)NCCc2ccccc2)C1 (configuration not stated)	-11	i	-2	2	-5	-1	x	-50
Cc1ccccc1Cn1cc(NC(=O)c2noc(C(C)C)c2[N+](=O)[O-])cn1	-14	i	-2	-3	10	-15	-5	0
Cc1cc(C)cc(NC(=O)CCCSc2nc3ccccc3[nH]2)c1	-4	i	4	-2	-7	14	x	14
CC(C)Cc1nnc(NC(=O)c2cc([N+](=O)[O-])ccc2N2CCOCC2)s1	-8	i	3	0	-13	-1	-4	15
O=C(N/C=C/c1ccco1)Nc1cccc(Cl)c1	27	i	-6	3	16	-15	-4	-16
Nc1ccc2c(c1)C(=O)CCC2	x	x	5	5	x	x	-25	-14
Nc1c(CNCc2nnn(Cc3ccccc3)c2N)nnn1Cc1ccccc1	x	x	4	0	x	x	-32	15
CCCNC(=O)C(Cc1ccc(C(F)(F)F)cc1)NC(=O)c1ccc(C#N)cc1 (configuration not stated)	x	x	-3	-1	x	-13	-26	-29
CCC1(C)Cc2ccccc2-c2nc(NCCCO)[nH]c(=O)c21 (configuration not stated)	0	i	8	4	1	0	x	10
Cc1nc(-c2cccc(NC(=O)c3cc4cc(Br)ccc4oc3=O)c2)cs1	3	i	-2	-2	-9	-5	-15	x
COC(=O)CC(c1ccc(F)cc1)n1c(C)ccc1C (configuration not stated)	-8	i	3	5	6	7	0	-66
O=C(O)CCCCCNS(=O)(=O)/C=C/c1ccccc1	-20	i	-1	-4	-9	-12	x	-16
Clc1ccc(N/N=C/c2cccnc2)cc1	7	i	0	1	-2	85*	-36	-17
CC(C)c1ccc(N(CC(=O)NCc2ccco2)C(=O)CCC(=O)Nc2nccs2)cc1	-3	x	-2	-3	23	1	-15	9
Cc1ccc(S(=O)(=O)N(C)C)cc1NC(=O)C(C)OC(=O)c1ccc2c(=O)n3c(nc2c1)CCC3 (configuration not stated)	x	x	1	-1	x	x	-10	30
CCOC(=O)Cc1csc(NC(=O)CN2CCOCC2)n1	1	i	8	3	-6	5	-9	-10
CCOC(=O)C1(CCCc2ccccc2)CCN(Cc2nccn2CC)CC1	-9	i	-6	-8	-9	35	x	-4
O=C(C1CCN(S(=O)(=O)c2cc(Cl)ccc2Cl)CC1)N1CCOCC1	-12	i	-4	-1	-6	-15	2	-6
CCOc1ccccc1C(=O)NC1CC2CCCC(C1)N2Cc1ccccc1 (configuration not stated)	0	i	1	1	-3	-1	-27	-54
CCN(CC)CC#CCOC(c1ccccc1)c1ccccc1	0	i	-1	0	18	-4	-9	5
Cc1cc(NC(=O)CCC(=O)N(CC(=O)NC2CCCC2)Cc2cccs2)no1	2	i	-4	2	-9	8	x	-67
CCOC(=O)C(C)Oc1cccc2c(=O)n(CC(=O)N3CCN(C(=O)OCC)CC3)ccc12 (configuration not stated)	-3	i	-3	-1	-2	-5	-8	-142
COc1ccc(CCNC(=O)CSCc2c(F)cccc2Cl)cc1OC	-13	i	-2	-4	4	0	9	1
CC(NC(=O)COC(=O)/C=C/c1ccc2c(c1)OCO2)c1ccccc1 (configuration not stated)	x	x	4	5	x	1	-13	x
CC(C(=O)NCCC1=CCCCC1)c1ccc([N+](=O)[O-])cc1 (configuration not stated)	-5	i	2	0	7	-26	x	13
Cc1c(Nc2ccc3nonc3c2[N+](=O)[O-])c(=O)n(-c2ccccc2)n1C	1	i	4	1	-2	-6	x	9
Cc1nc(NC(=S)NC(=O)c2ccccc2)sc1C	-1	i	-1	1	6	-9	-8	-60
CN1C(C(=O)NCC2CC2)CC2Cn3c(nc4cc(Cl)c(Cl)cc43)C21 (configuration not stated)	-8	i	1	-1	9	8	-18	2
CCOC(=O)c1cnc(Nc2nc3ccccc3o2)nc1CSc1nnc(C)s1	x	i	14	4	x	6	-18	-17
COc1ccc(-c2ccc(CN3C(CC(C)C)C(=O)N(Cc4cn(CCC5OCCCO5)nn4)CCS3(=O)=O)cc2)cc1OC (configuration not stated)	x	x	5	-11	x	x	-13	-76
Cc1cc(NC(=O)CN2C(=O)/C(=C/c3cccc(Br)c3)SC2=S)no1	16	i	18	27	-12	-11	x	8
CC(C)=CC(=O)OCC(=O)Nc1cccc([N+](=O)[O-])c1	-2	i	3	4	11	-9	x	-8
CCCCCOc1ccc(N2C(=O)CC(N(O)c3ccccc3)C2=O)cc1 (configuration not stated)	2	i	-1	-3	-2	6	-10	-199
O=C(Nc1ccc2c(c1)OCO2)C1CCN(Cc2cc3c(cc2O)OCO3)CC1	6	i	4	1	5	-4	-14	-4
O=C(O)C1C2C=CC(C2)C1C(=O)Nc1nccs1 (configuration not stated)	-2	i	6	5	4	x	-12	-17
Cc1cc(C)nc(SCCC(=O)N2CCOCC2)n1	-2	i	4	-1	-4	-10	5	x
COc1cccc(CN2CCC(Oc3ccc(C(=O)NCc4ccccn4)cc3)CC2)c1	4	i	-4	-5	-1	-5	-21	8
COC(=O)c1sccc1NC(=O)Nc1cccc(OC)c1	5	i	-2	-3	-1	-6	-3	10
O=P(COCCOCP(=O)(c1ccccc1)c1ccccc1)(c1ccccc1)c1ccccc1	0	i	2	2	0	-21	-2	x
CC12CN3CC(C)(CN(C1)C3c1ccc(Br)cc1O)C2 (configuration not stated)	-11	i	-2	2	4	-2	-9	x
CC(NC(=O)c1ccccc1)c1nc2ccccc2n1Cc1ccccc1F (configuration not stated)	-7	i	x	x	0	-9	x	-14
CCc1cc2ccccc2nc1Cl	-1	i	-2	2	-4	-5	-13	4
O=C(COC(=O)c1n[nH]c(=O)c2ccccc12)Nc1ccccc1F	x	x	1	5	x	-8	-1	-29
O=C(O)c1ccccc1CSC1=NCCS1	-10	i	2	6	-4	-7	x	14

Grouped by structure: the entries above with a cyano group
SMILES	eIF4H inh	Rce1 inhib	MT1-MMP act inh	MT1-MMP act inh RFP	PABP FP inh	CSC inhib	UUG fidelity	Env fusion inh	others
COc1ccc(N2CCN(c3ccc(NC(=O)C4CCCCC4)cc3C#N)CC2)cc1	-10	i	6	1	4	-14	-5	x
CCCNC(=O)C(Cc1ccc(C(F)(F)F)cc1)NC(=O)c1ccc(C#N)cc1 (configuration not stated)	x	x	-3	-1	x	-13	-26	-29

The listing continues:
SMILES	eIF4H inh	Rce1 inhib	MT1-MMP act inh	MT1-MMP act inh RFP	PABP FP inh	CSC inhib	UUG fidelity	Env fusion inh	others
CCOC(=O)c1c(NC(=O)CC2Nc3ccccc3NC2=O)sc(C)c1C (configuration not stated)	1	i	-6	4	1	0	-14	-19
CNC(=O)N(O)C1N(/N=C/c2cccs2)C(=S)SC1(C)C (configuration not stated)	6	i	-1	-2	6	-7	x	-10
CCC(C)[C@H](NC(=O)NCc1ccco1)C(=O)OC (some centres not stated)	-2	i	2	3	-2	0	-11	-11
C[C@H](N)C(=O)N1CCC(C(=O)N[C@@H](Cc2ccccc2)C(=O)Nc2ccc(F)cc2)CC1	-7	x	3	3	-14	-7	-6	x
Cc1cc(C)n(Cc2cc(C(=O)O)c3ccccc3n2)n1	-12	i	0	3	-3	15	-20	6
C[C@H]1CN([C@@H](C)CO)C(=O)c2cc(C3=CCCCC3)cnc2O[C@@H]1CN(C)C(=O)Cc1ccccc1	x	x	4	3	x	x	-3&2&-1	-67
CC(=O)Nc1ccccc1NC(=O)C/C(C)=N/NC(=O)c1ccncc1	8	x	0	6	-5	x	x	-9
COc1cc(OC)cc(C(=O)Nc2ccc(Nc3ccccc3)cc2)c1	-15	i	2	-5	-8	88*	-11	-9
O=C(CCNC(=O)Cn1ccc2ccccc2c1=O)NCc1ccc(F)cc1Cl	-3	i	0	0	10	-12	x	0
O=C(COC(=O)c1ccccn1)Nc1cccnc1Cl	x	i	-1	5	x	-2	-21	-30
Cc1cccn2c(=O)c3cc(C(=O)NC4CCCC4)c(=N)n(CCCN4CCOCC4)c3nc12	25	u	-5	2	0	-1	-16	-18
CCn1c(-c2nn(C)c(C)c2Cl)n[nH]c1=S	-6	i	4	6	4	-4	-24	i
Nc1c(C(=O)Nc2ccccc2F)sc2nc(-c3ccco3)ccc12	90*	i	-5	4	73*	15	-22	-118	eIF4H inh retest=89*;PABP FP inh retest=89*
Cc1ccc(F)cc1S(=O)(=O)NCc1ccc(N2CCN(C)CC2)cc1	-7	i	-2	0	-2	59	-13	-2
O=C(COC(=O)c1ccc(S(=O)(=O)N2CCCC2)cc1)Nc1ccc(N2CCOCC2)cc1	1	i	1	6	7	-5	x	4
COc1ccc(-n2nnnc2SCC(N)=O)cc1	-10	i	1	2	-5	-9	-2	-19
Cc1nc2ccc(C(=O)NC(C)(C)C)cn2c1N(C)C(=O)CCc1ccccc1	x	x	3	4	x	x	-19	-8
CCCCCn1nc(C(=O)N(CC)c2c(N)n(CCCC)c(=O)[nH]c2=O)c2ccccc2c1=O	x	x	-3	1	x	-1	-11	2

Compound activity deposited in PubChem BioAssay by several laboratories.
